Screening data from PubChem.
TDP1 block: qHTS Assay for Inhibitors of Tyrosyl-DNA Phosphodiesterase (TDP1) | actives 0.28% (n = 350,000) | AID 485290, 2010 | recombinant TDP1, AlphaScreen DNA substrate cleavage | Tyrosyl-DNA phosphodiesterase 1 (Homo sapiens), Q9NUW8 | Potency, µM (series often up to 130 µM), for inactives: top-dose activity change, negative = inhibition, most hits filed as inhibitors; active = well fitted inhibition curve with a large enough effect; note: nearly all actives have a fitted effect of over 40% in size
Target sequence (Q9NUW8 whole entry, looked up): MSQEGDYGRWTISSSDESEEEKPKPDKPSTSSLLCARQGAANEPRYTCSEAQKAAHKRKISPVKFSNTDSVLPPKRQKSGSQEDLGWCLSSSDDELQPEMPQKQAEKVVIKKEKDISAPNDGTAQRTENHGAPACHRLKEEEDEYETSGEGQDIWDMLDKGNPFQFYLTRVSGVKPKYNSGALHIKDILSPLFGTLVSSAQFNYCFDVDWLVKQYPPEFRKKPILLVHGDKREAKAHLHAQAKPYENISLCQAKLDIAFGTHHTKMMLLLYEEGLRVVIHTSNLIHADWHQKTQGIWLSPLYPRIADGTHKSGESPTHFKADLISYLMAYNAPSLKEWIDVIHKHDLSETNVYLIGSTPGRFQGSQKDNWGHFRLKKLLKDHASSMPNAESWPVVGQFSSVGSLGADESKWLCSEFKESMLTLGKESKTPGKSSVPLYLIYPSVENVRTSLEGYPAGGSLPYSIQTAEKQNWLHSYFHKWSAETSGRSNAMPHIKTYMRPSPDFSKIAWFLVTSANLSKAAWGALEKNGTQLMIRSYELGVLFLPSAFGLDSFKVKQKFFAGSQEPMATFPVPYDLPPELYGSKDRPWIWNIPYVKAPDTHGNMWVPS
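Enzyme-compound mixtures sat 15 min at room temperature, followed by a 5 min reaction with 15 nM final substrate and 10 min with AlphaScreen beads. Recombinant human Tdp1 was used at 1 nM final.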
Numbers without * were called inactive; & = joins results of further samples. % is set by controls: 0 for no effect and ±100 for the full control effect; potency is the fitted concentration of half-maximal effect.

item	mol	TDP1 block
1	COc1cc(C)c(Br)cc1S(=O)(=O)NCc1cccs1	3%
2	COc1ccc(C(C)=O)c2c1OCCO2	1%
3	O=C1OCc2cccc([N+](=O)[O-])c21	1%
4	O=C(N/N=C/c1coc2ccccc2c1=O)c1cc(O)cc(O)c1	4%
5	COc1ccccc1NC(=O)c1nn(-c2ccc(OC(F)(F)F)cc2)ccc1=O	-6%
6	O=C(C[n+]1ccccc1)N/N=C/c1ccccc1[N+](=O)[O-]	0%
7	c1ccc(CSc2nnc3ccc(-c4ccncc4)nn23)cc1	6%
8	Clc1ccc(Cc2ccc(Cl)nn2)c(Cl)c1	3%
9	CC(OC(=O)Cn1nnc2ccccc21)C(=O)NC1CCCC1 (stereo unspecified)	1%
10	CCn1c(=N)n(CC(=O)c2cccc(OC)c2)c2ccccc21	-3%
11	CC(C)n1c(O)c(N=Nc2ccccn2)c2ccccc21	-1%
12	O=C(CSc1nc2ncccc2[nH]1)c1cccc([N+](=O)[O-])c1	3%
13	CN(C)/C=N/c1c(C#N)cnn1-c1nc2ccccc2s1	5%
14	CC(C)(C)NS(=O)(=O)CC12CCC(CC1=O)C2(C)C (stereo unspecified)	4%
15	COc1ccc(CCNC(=O)C2CCN(S(=O)(=O)c3ccc(SC)cc3)CC2)cc1	2%
16	CCC(CC)c1nnc(NC(=O)CS(=O)(=O)c2ccc(C)cc2)s1	3%
17	O=CN1Cc2[nH]c3ccccc3c2N(c2ccc(Cl)cc2)C1=O	1%
18	O=S1(=O)N=C2CCCCCN2C(c2ccc(Cl)cc2)N1 (stereo unspecified)	0%
19	COc1ccc(OC)c(CNC(=O)CCCc2cn(C)c3ccccc23)c1	5%
20	C/C(=N\NC(=O)c1c(Cl)cnn1C)c1cccc(NC(=O)c2ccc(C)cc2)c1	1%
21	O=C(C1CCCN1S(=O)(=O)c1cccc2nsnc12)N1CCCCC1 (stereo unspecified)	6%
22	COc1ccc(C(=O)NCc2ccc(N3CCN(C(=O)OC(C)(C)C)CC3)cc2)cc1	5%
23	COc1ccccc1C(O)(C(=O)NNc1cccc(C)c1)c1ccccc1OC	-3%
24	C/C(=N\NC(=O)Nc1ccccc1)c1ccccc1	3%
25	O=C(COC(=O)c1ccc(F)cc1)Nc1cc(S(=O)(=O)N2CCOCC2)ccc1N1CCCC1	-1%
26	Cc1cc(C)n2nc(C(=O)Oc3ccc4c(c3)OCO4)nc2n1	6%
27	CN(C(=O)COC(=O)c1cc(S(=O)(=O)N2CCOCC2)c(Cl)cc1Cl)C1CCS(=O)(=O)C1 (stereo unspecified)	-1%
28	O=S(=O)(NCc1ccccc1F)c1cccc(S(=O)(=O)N2CCOCC2)c1	6%
29	CC(=O)c1ccc(NC(=O)CN(c2c(C)cccc2C)S(C)(=O)=O)cc1	6%
30	OCCC1CN(Cc2ccc(F)cc2)CCN1CCCc1ccccc1 (stereo unspecified)	2%
31	COc1ccc(-c2cc(C(=O)Nc3cccnc3Cl)no2)cc1	7%
32	Cc1ccc(N(C(=O)c2csnn2)C(C(=O)NCc2ccccc2)c2cccnc2)cc1 (stereo unspecified)	11%
33	CC(C)CCNC(=O)C1CC(c2ccc(C(F)(F)F)cc2)=NO1 (stereo unspecified)	-4%
34	Cc1cnc(NC(=O)COc2cccc3c2OC(C)(C)C3)s1	2%
35	COC(=O)c1ccccc1NC(=O)c1cc(-c2ccco2)on1	-7%
36	COc1cc2nc(N3CCN(C(=O)OCc4ccccc4)[C@H](C(=O)NC(C)(C)C)C3)nc(N)c2cc1OC	10%
37	CCC(Sc1nc2ccccc2c(=O)n1CCN1CCOCC1)C(=O)NCc1cccnc1 (stereo unspecified)	3%
38	CCCCC(=O)N/N=C(\C)CC(=O)Nc1cc(Cl)ccc1OC	1%
39	CN(CCc1ccccn1)C(=O)CC1C(=O)NCCN1Cc1ccc(-c2ccccc2)cc1 (stereo unspecified)	0%
40	O=C1C2CCCN2C(c2ccccc2)N1c1ccc(Cl)cc1 (stereo unspecified)	2%

26 entries from above, with the structure last:
cpd | TDP1 block | SMILES
14 | 4% | CC(C)(C)NS(=O)(=O)CC12CCC(CC1=O)C2(C)C (stereo unspecified)
15 | 2% | COc1ccc(CCNC(=O)C2CCN(S(=O)(=O)c3ccc(SC)cc3)CC2)cc1
16 | 3% | CCC(CC)c1nnc(NC(=O)CS(=O)(=O)c2ccc(C)cc2)s1
17 | 1% | O=CN1Cc2[nH]c3ccccc3c2N(c2ccc(Cl)cc2)C1=O
18 | 0% | O=S1(=O)N=C2CCCCCN2C(c2ccc(Cl)cc2)N1 (stereo unspecified)
19 | 5% | COc1ccc(OC)c(CNC(=O)CCCc2cn(C)c3ccccc23)c1
20 | 1% | C/C(=N\NC(=O)c1c(Cl)cnn1C)c1cccc(NC(=O)c2ccc(C)cc2)c1
21 | 6% | O=C(C1CCCN1S(=O)(=O)c1cccc2nsnc12)N1CCCCC1 (stereo unspecified)
22 | 5% | COc1ccc(C(=O)NCc2ccc(N3CCN(C(=O)OC(C)(C)C)CC3)cc2)cc1
23 | -3% | COc1ccccc1C(O)(C(=O)NNc1cccc(C)c1)c1ccccc1OC
24 | 3% | C/C(=N\NC(=O)Nc1ccccc1)c1ccccc1
25 | -1% | O=C(COC(=O)c1ccc(F)cc1)Nc1cc(S(=O)(=O)N2CCOCC2)ccc1N1CCCC1
26 | 6% | Cc1cc(C)n2nc(C(=O)Oc3ccc4c(c3)OCO4)nc2n1
27 | -1% | CN(C(=O)COC(=O)c1cc(S(=O)(=O)N2CCOCC2)c(Cl)cc1Cl)C1CCS(=O)(=O)C1 (stereo unspecified)
28 | 6% | O=S(=O)(NCc1ccccc1F)c1cccc(S(=O)(=O)N2CCOCC2)c1
29 | 6% | CC(=O)c1ccc(NC(=O)CN(c2c(C)cccc2C)S(C)(=O)=O)cc1
30 | 2% | OCCC1CN(Cc2ccc(F)cc2)CCN1CCCc1ccccc1 (stereo unspecified)
31 | 7% | COc1ccc(-c2cc(C(=O)Nc3cccnc3Cl)no2)cc1
32 | 11% | Cc1ccc(N(C(=O)c2csnn2)C(C(=O)NCc2ccccc2)c2cccnc2)cc1 (stereo unspecified)
33 | -4% | CC(C)CCNC(=O)C1CC(c2ccc(C(F)(F)F)cc2)=NO1 (stereo unspecified)
34 | 2% | Cc1cnc(NC(=O)COc2cccc3c2OC(C)(C)C3)s1
35 | -7% | COC(=O)c1ccccc1NC(=O)c1cc(-c2ccco2)on1
36 | 10% | COc1cc2nc(N3CCN(C(=O)OCc4ccccc4)[C@H](C(=O)NC(C)(C)C)C3)nc(N)c2cc1OC
37 | 3% | CCC(Sc1nc2ccccc2c(=O)n1CCN1CCOCC1)C(=O)NCc1cccnc1 (stereo unspecified)
38 | 1% | CCCCC(=O)N/N=C(\C)CC(=O)Nc1cc(Cl)ccc1OC
39 | 0% | CN(CCc1ccccn1)C(=O)CC1C(=O)NCCN1Cc1ccc(-c2ccccc2)cc1 (stereo unspecified)

(further entries)
41. COc1ccc(-c2cc(C(=O)c3c(N)n(C)c(=O)n(C)c3=O)c3ccccc3n2)cc1OC
  TDP1 block: 6%

42. NNC(=O)Cc1csc(-c2ccccc2)n1
  TDP1 block: 3%

43. CCOC(=O)COc1ccc(S(=O)(=O)Nc2ccc3c(c2)OCO3)cc1
  TDP1 block: -5%

44. CCOc1ccc(NS(=O)(=O)c2ccc3[nH]cc(C(=O)NCCOC)c(=O)c3c2)cc1
  TDP1 block: -6%&-9%

45. N#CCCN(C1CCCCC1)S(=O)(=O)c1cccc2nsnc12
  TDP1 block: 0%

46. C/C(=N\NC(=O)C1CC1)c1ccc(C(C)(C)C)cc1
  TDP1 block: 1%

47. COC(=O)/C=c1/s/c(=C(\C#N)C(=O)NCc2ccco2)n(-c2ccc(C)cc2)c1=O
  TDP1 block: 6%

48. CCOC(=O)N/N=C/c1cc(OC)c(O)c(OC)c1
  TDP1 block: 3%

49. CCCCCCOC(=O)c1ccc(N)cc1
  TDP1 block: 1%

50. CC1(C)Cc2cccc(OCC(=O)N3CCN(S(=O)(=O)c4ccccc4F)CC3)c2O1
  TDP1 block: -2%

51. CC(Oc1ccccc1)c1ccnn1S(C)(=O)=O (stereo unspecified)
  TDP1 block: 1%

52. COc1ccc(C2=NOC(C(=O)Nc3cc(C)on3)C2)cc1 (stereo unspecified)
  TDP1 block: 4%

53. Cc1ccc(NS(=O)(=O)c2c(C)[nH]c(C)c2C(=O)N2CCCCC2)cc1C
  TDP1 block: -5%

54. CCCc1nn2c(=O)cc(CSCC(=O)Nc3nnc(CC)s3)nc2s1
  TDP1 block: 1%

55. COc1cc2c(C(=O)NCc3ccccn3)cn(C)c(=O)c2cc1OC
  TDP1 block: 4%

Entries shown so far that contain a cyano group, in the order listed:
13. CN(C)/C=N/c1c(C#N)cnn1-c1nc2ccccc2s1
  TDP1 block: 5%

45. N#CCCN(C1CCCCC1)S(=O)(=O)c1cccc2nsnc12
  TDP1 block: 0%

47. COC(=O)/C=c1/s/c(=C(\C#N)C(=O)NCc2ccco2)n(-c2ccc(C)cc2)c1=O
  TDP1 block: 6%

(continued)
56. Cc1ccc(NC(=O)CC2Oc3ccccc3NC2=O)c(C)c1 (stereo unspecified)
  TDP1 block: -4%

57. Cc1c(C(=O)NC(=S)NCc2cccnc2)oc2ccccc12
  TDP1 block: 2%

58. CS(=O)(=O)c1ccc2nc(NC(=O)C3=NN(c4ccccc4)C(=O)CC3)sc2c1
  TDP1 block: -1%

59. CCS(=O)(=O)N1CCC(C(=O)NCc2ccc3c(c2)OCO3)CC1
  TDP1 block: 2%

60. CCn1c(CSc2nc(C)cc(C)n2)nnc1SCC(N)=O
  TDP1 block: -11%

61. O=C(NCC1CCCO1)c1ccc(F)c2ccccc12 (stereo unspecified)
  TDP1 block: -3%

62. Cc1cc(NC(=O)CCC(=O)N(Cc2ccco2)C(C(=O)NC2CCCCC2)c2ccccc2)no1 (stereo unspecified)
  TDP1 block: 5%

63. CCOc1ccccc1NC(=O)C1C2CCC3C(CCC21)C3(Cl)Cl (stereo unspecified)
  TDP1 block: -3%

64. COc1ccc(OC)c(S(=O)(=O)N2CCC(C(=O)NCc3ccc4c(c3)OCO4)CC2)c1
  TDP1 block: 4%

Only part of the results is shown, and most or all hits are left out here.
